# HSD17B inh: qHTS Assay for Inhibitors of HSD17B4, hydroxysteroid (17-beta) dehydrogenase 4 | 3-hydroxyacyl-CoA dehydrogenase type-2 (Homo sapiens), Q99714 | recombinant HSD17B10, NADH fluorescence kinetic; many of its hits are not listed in these tables | 75,000 tested, 7.6% active | Potency, µM (highest dose often 57.1 µM), for inactives: top-dose activity change, negative = inhibition, actives largely listed as inhibitors; active = well fitted inhibition curve with a large enough effect; inconclusive = small, poorly fitted or top-dose-only effect; inactive = no such curve, though single readings can be large or run the other way;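 note: the protocol describes HADH2 (HSD17B10) and not the HSD17B4 of the title; nearly all actives have a fitted effect of over 70% in size; most hits overshoot -100% by far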
#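 20 nM HADH2, pH 9.0 Tris/Tween; cpd preinc 15 min RT; start w/ 1 mM NAD+ + 90 uM b-hydroxybutyryl-CoA; kinetic fluor ex360/em450 q30s x 4 min; delta last-first.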
# Numbers without * were called inactive; ? = inconclusive; [ ] = another dose, or the depositor's remark. % is set by controls: 0 for no effect and ±100 for the full control effect; potency is the fitted concentration of half-maximal effect.
SMILES,HSD17B inh
Cc1nc2cc(NC(=O)N3c4ccccc4CC3C)ccc2n1C (stereo not drawn),6%
CCCCCOC(=O)Cc1c(O)c2ccccc2[nH]c1=O,32µM*
CN1CCN(CC(=O)N(Cc2c(C#N)c3ccccc3n2C)c2ccccc2)CC1,10%
CCC(=O)N(Cc1ccco1)c1nc(-c2cc(OC)ccc2OC)cs1,10%
Cc1oc(C(=O)O)cc1CSc1nnc(-c2ccccc2)n1C,-1%
CCOC(=O)N1CCC(NC(=O)c2cc(C(=O)NC3CCCC3)ccc2CO)CC1,14%
Cc1ccc(C)c(NC(=O)CN(C)S(=O)(=O)c2ccccc2)c1,-9%
Cc1ccc(NC(=O)CCSc2nnc(-c3ccco3)o2)cc1,-1%
Cc1oc2ncnc(N)c2c1C,-11%
COCCNC(=O)C(c1ccccc1)N(C(=O)Cn1nnc2ccccc21)c1cccnc1 (stereo not drawn),8%
COc1ccc(C2(CCN)CC(C)N(C)CC2C)cc1 (stereo not drawn),-14%
Fc1ccc2c(Cl)c(-c3nnc(-c4cccs4)o3)sc2c1,?
Cc1onc(-c2c(Cl)cccc2Cl)c1C(=O)NCc1ccco1,-19%
COC(=O)CN=C1OC(=O)N2C(=O)C3=C4C(C[C@H]5C(=O)N(c6ccccc6)C(=O)[C@H]5[C@H]4[C@@]12Cc1ccccc1)[C@H]1C(=O)N(c2ccccc2)C(=O)[C@H]1[C@H]3C (stereo partly drawn),-8%
CCN1C(=O)[C@H]2[C@H]3[C@H](O)[C@H](O)C/C(=N/O[C@@H](C)CN4CCCCc5nc(C)c(C)cc54)[C@@H]3CC[C@@H]2C1=O,3%[11.4 µM]

# Next part (five carried over from the part before).
SMILES,HSD17B inh
COc1ccc(C2(CCN)CC(C)N(C)CC2C)cc1 (stereo not drawn),-14%
Fc1ccc2c(Cl)c(-c3nnc(-c4cccs4)o3)sc2c1,?
Cc1onc(-c2c(Cl)cccc2Cl)c1C(=O)NCc1ccco1,-19%
COC(=O)CN=C1OC(=O)N2C(=O)C3=C4C(C[C@H]5C(=O)N(c6ccccc6)C(=O)[C@H]5[C@H]4[C@@]12Cc1ccccc1)[C@H]1C(=O)N(c2ccccc2)C(=O)[C@H]1[C@H]3C (stereo partly drawn),-8%
CCN1C(=O)[C@H]2[C@H]3[C@H](O)[C@H](O)C/C(=N/O[C@@H](C)CN4CCCCc5nc(C)c(C)cc54)[C@@H]3CC[C@@H]2C1=O,3%[11.4 µM]
Cc1cc(C(=O)NCCCN2CCN(C3CCCCC3)CC2)n(-c2ccccc2)n1,9%
N#CC(C(=O)NC1CCCCC1)c1nc2ccccc2nc1N1CCOCC1 (stereo not drawn),-8%
CCOc1ccc(C(=O)CN2CCN(S(=O)(=O)c3ccc(Cl)cc3)CC2)cc1,-1%
Nc1ccnn1Cc1cccnc1,-6%
COc1cc(-c2nnc(COc3ccc4cc(Br)ccc4c3)o2)cc(OC)c1OC,-5%
Cc1nc2ccccc2c(=O)n1/N=C/c1cccnc1,-1%
CC12CC(NC(=O)N1c1ccc(C(=O)N3CCN(c4ccccn4)CC3)cc1)c1ccccc1O2 (stereo not drawn),-8%
COc1cc(CN2CCCCC2)cc2cc(C(=O)O)c(=O)oc12,9%[11.4 µM]
COC(=O)c1ccccc1NC(=O)C(C)Oc1ccccc1 (stereo not drawn),-14%
Cn1cc(C(=O)NCCc2ccccc2)c(=O)c2cc(S(=O)(=O)N3CCOCC3)ccc21,-3%
O=C(COc1ccccc1Cl)OCC(=O)N1CCN(S(=O)(=O)c2ccccc2)CC1,-2%
CCc1ccc(-c2nc(CSCC(=O)N3CCN(c4ccccn4)CC3)c(C)o2)cc1,-12%
CCOc1ccc(N2CC(=O)Nc3ccccc3NCC2=O)cc1,7%
NC(=O)C1CCCN(S(=O)(=O)c2ccc(Br)cc2)C1 (stereo not drawn),3%
CC(=O)Nc1cccc(C(=O)Nc2ccccc2C(=O)O)c1,3%

# Reformatted: entries from further up.
> Nc1ccnn1Cc1cccnc1
  HSD17B inh: -6%

> COc1cc(-c2nnc(COc3ccc4cc(Br)ccc4c3)o2)cc(OC)c1OC
  HSD17B inh: -5%

> Cc1nc2ccccc2c(=O)n1/N=C/c1cccnc1
  HSD17B inh: -1%

> CC12CC(NC(=O)N1c1ccc(C(=O)N3CCN(c4ccccn4)CC3)cc1)c1ccccc1O2 (stereo not drawn)
  HSD17B inh: -8%

# Grouped by structure, the compounds so far with an aryl thioether with sulfur outside any ring
SMILES,HSD17B inh
Cc1oc(C(=O)O)cc1CSc1nnc(-c2ccccc2)n1C,-1%
Cc1ccc(NC(=O)CCSc2nnc(-c3ccco3)o2)cc1,-1%

# Later entries
SMILES,HSD17B inh
COc1cc(C(=O)OC(C)C(=O)N2CCc3ccccc3C2)ccc1OCC(=O)N1CCOCC1 (stereo not drawn),-14%
CN(C)Cc1ccccc1-c1cc(NC2CC2)ncn1,5%
CN(C)S(=O)(=O)c1ccc(C(=O)OCCCN=C2NS(=O)(=O)c3ccccc32)cc1,3%
CS(=O)(=O)N(CC(=O)NCCSc1ccccc1)c1ccc2c(c1)OCO2,9%
O=C(C1CCC(CNc2c(N3CCCCC3)c(=O)c2=O)CC1)N1CCc2ccccc2C1 (stereo not drawn),4%
O=C(CN1C(=O)C2CC=CCC2C1=O)Nc1nccs1 (stereo not drawn),6%
O=C(Nc1ccc(N2CCOCC2)cc1)c1cc2ccccc2o1,?
Cc1cc(=O)n2nc(N3CCCC3C(=O)NCc3ccccn3)sc2n1 (stereo not drawn),-2%
COc1ccc(C(=O)N2CCC[C@@]3(CCN(c4cccc(-c5ccccc5)c4)C3)C2)cc1,-27%
COC(=O)c1ccc(N2C(=O)CC(NCc3ccccc3)C2=O)cc1 (stereo not drawn),1%
COC(=O)Nc1c(C)nn(Cc2ccccc2C)c1C,0%
Cc1csc(NC(=O)c2ccoc2C)n1,1%
CCCc1n[nH]c2c1/C(=N/O)CC(c1ccccc1)C2 (stereo not drawn),-9%
O=C(Nn1cnnc1)C(Sc1ccccc1)c1ccccc1 (stereo not drawn),-4%
CC(C)COc1ccc(C2NC(=O)NC2=O)cc1 (stereo not drawn),2%
CN(C1CCS(=O)(=O)C1)S(=O)(=O)c1ccc(C2CCCCC2)cc1 (stereo not drawn),5%
CCOc1ccc(N(CC(=O)NCc2ccccc2OC)S(C)(=O)=O)cc1,-7%
Cc1cc(Cl)ccc1NC(=O)CSc1nnc(Cc2cccs2)n1Cc1ccco1,-27%
CCCC1=C(C(=O)OCC)C(c2ccc(N(C)C)cc2)n2ncnc2N1 (stereo not drawn),9%
O=C(O)C1CC=CCC1C(=O)Nc1cc(Cl)ccc1Cl (stereo not drawn),3%
COC(=O)c1sccc1NC(=O)Cn1nnc(-c2ccc(C)cc2)n1,-10%
CCOC(=O)c1ccccc1NC(=O)CN1C(=O)c2ccccc2S1(=O)=O,76%[activator]
COc1ccccc1N(CC(=O)N1CCCCC1)S(=O)(=O)c1ccccc1,-6%
CCOc1ccc(C2c3c(oc4ccccc4c3=O)C(=O)N2c2ccc(C)cn2)cc1OC (stereo not drawn),0%
CCc1cc(C(=O)OC)c(N2C(=O)C3C4C=CC(C4)C3C2=O)s1 (stereo not drawn),12%
O=C1CCc2cc(S(=O)(=O)N3CCC(C(=O)NC4CCCC4)CC3)ccc2N1,4%
CC(C)OC(=O)CSc1nnc(-c2cnccn2)n1Cc1ccco1,10%
CC(CCC(=O)O)C1CCC2C3C(=O)C[C@@H]4CC(=O)CC[C@@]4(C)C3CC(=O)[C@]12C (stereo partly drawn),3%
COC(=O)Cn1ccc(N(C)C)c(C#N)c1=O,-6%
Cc1cc(C)nc(Nc2ccccc2Br)n1,2%
CCOc1cc(C(=O)N(C)Cc2cc3ccccc3[nH]c2=O)cc(OCC)c1OCC,-2%
CCCc1[nH]nc2c1C(c1cc(OC)cc(OC)c1)C(C#N)=C(N)O2 (stereo not drawn),-12%
Cc1cccn2c(=O)c3cc(C#N)c(=O)n(-c4c(C)n(C)n(-c5ccccc5)c4=O)c3nc12,0%
O=C(CSc1nc2cc(S(=O)(=O)N3CCOCC3)ccc2o1)NC1CCCc2ccccc21 (stereo not drawn),?
Cn1c(=O)c2[nH]c(/N=N\N3CCN(CCO)CC3)nc2n(C)c1=O,3%[11.4 µM]
Nc1ncnc2c1CCC2,7%
Cc1cc(C(=O)OCC(=O)Nc2ncc(C(F)(F)F)cc2Cl)c(C)o1,-6%
COc1ccccc1C(=O)N(Cc1cccs1)C1CCS(=O)(=O)C1 (stereo not drawn),1%
C=CCc1cc(C)cc(C)c1OCCn1cncn1,9%
O=C(NCc1ccccn1)Nc1ccc(Cl)c(Cl)c1,0%
O=C(OCCOCCN=C1NS(=O)(=O)c2ccccc21)c1ccncc1,6%
CCc1nnc(NC(=O)CCC(=O)N2CCCC2)s1,1%
O=c1c2[nH]c3ccccc3c2ncn1CCN1CCCCC1,-4%
O=C1[C@H]2[C@H]3[C@H](O)[C@H](O)C/C(=N/OC[C@@H](O)COCc4ccco4)[C@@H]3CC[C@@H]2C(=O)N1Cc1ccccc1,3%[11.4 µM]
COc1ccc(CCN2C(=O)c3ccccc3C2(O)c2ncc[nH]2)cc1OC (stereo not drawn),11%
COC(=O)c1[nH]c2cccc(OC)c2c1NC(=O)CCN1CCN(c2ccccc2OC)CC1,25µM*
CCS(=O)(=O)Nc1ccc(-c2nnc(SCC(=O)c3cccc(OC)c3)o2)cc1,3%
CCOc1ccc(C2NC(=O)c3n[nH]c(C)c32)cc1 (stereo not drawn),4%
COc1ccc(NS(=O)(=O)c2ccc(C)c(C(=O)O)c2)cc1,-3%
Cc1cc(NCCN2CCOCC2)n2nc(C)c(-c3ccccc3)c2n1,-7%
CC1CCCN(CC(=O)Nc2ccc(S(=O)(=O)NC3CCCCC3)cc2)C1 (stereo not drawn),-3%
COc1ccc(C2=NCC(CSc3nccc(=O)[nH]3)S2)cc1 (stereo not drawn),-14%
Cn1c(/C(C#N)=C(\O)COc2ccc3ccccc3c2)nc2ccccc21,3%
O=C(c1ccco1)N1CCN(S(=O)(=O)c2ccc(S(=O)(=O)NC3CCCC3)cc2)CC1,-6%
CCOC(=O)c1ccccc1NC(=O)Cn1cnc2c(nnn2-c2ccc(C)cc2)c1=O,-8%
Cc1ccc2cc(C#N)c(SCC(=O)NCc3ccco3)nc2c1,?
CCn1c2ccccc2c2cc(NC(=O)COC(=O)Cc3cn4ccsc4n3)ccc21,-15%
CCCC[C@@H]1C[C@H]1C(NC(=O)c1ccccc1)c1ccc(Cl)cc1 (stereo partly drawn),-12%
O=C1CC(N2CCOCC2)C(=O)N1c1ccc2c(c1)OCO2 (stereo not drawn),-16%
CC(=O)NCCNc1nc(-c2ccc3c(c2)OCO3)nc2ccccc12,-26%

# Continuation:
SMILES,HSD17B inh
N#CC1=C2Sc3ccccc3N2CCCC1=O,-3%
COc1ccccc1NC(=O)c1nnn(Cc2ccccc2)c1NC(C)=O,4%
Cc1ccc(SCCC(=O)N2CCOCC2)cc1,-8%
COc1cccc(CNC(=O)CCS(=O)(=O)c2cccc3nonc23)c1,-6%
Cc1ccc(C)c(S(=O)(=O)NCc2cccnc2)c1,-12%
COc1cccc(NC(=O)c2oc3ccccc3c2NC(=O)C(C)(C)C)c1,-25%
C[C@H]1/C=C\CC(=O)OC[C@H](C)C(=O)N2CCC[C@@H]2C(=O)OC1,0%[11.4 µM]
CCCCN(CC)CCCNC(=O)CC1Oc2ccccc2NC1=O (stereo not drawn),-3%
O=[N+]([O-])c1cc(Cl)cc2c1nc(NCCO)c1ccccc12,-2%[11.4 µM]
CC(=O)N1CCN(CCN=CC2=C(O)CC(C)(C)CC2=O)CC1,1%
CN(C)C(=O)CN(c1ccc(F)c(Cl)c1)S(C)(=O)=O,12%
O=C(c1ccc(S(=O)(=O)N2CCCCC2)cc1)N1CCN(c2ccccc2)CC1,2%
CC(C)CCn1cnc2c(cnn2-c2ccc(F)cc2)c1=O,-2%
COc1cc(/C=C/C(=O)c2cccs2)cc(OC)c1OC,?
Cc1cc(C)n2ncc(C(=O)Nc3ccc4c(c3)OCO4)c2n1,-23%
Cn1c(C(=O)NCCCN2CCOCC2)cc2c(=O)n(C)c3ccccc3c21,7.9µM*
CCOC(=O)C(NCc1ccccc1OC)(NC(C)=O)C(F)(F)F (stereo not drawn),6%
CCN(CC(=O)NCc1cccs1)c1nnnn1-c1ccccc1,18%
COC(=O)c1ccc(CSc2nnc(CNC(=O)c3ccccc3F)o2)o1,-5%
COc1ccc(N(CC(=O)Nc2cccc(C)c2)S(=O)(=O)c2c(C)n[nH]c2C)cc1,-9%
O=C1C2ON(c3ccccc3)C(c3ccncc3)C2C(=O)N1c1ccc(N2CCOCC2)cc1 (stereo not drawn),-5%
Cc1ccc(NC(=O)C2CCN(S(=O)(=O)c3cccc4nonc34)CC2)nc1,3%
CCOc1ccc2[nH]c(=O)c(CN(Cc3cccnc3)C(=O)Nc3ccccc3OC)cc2c1,?
CC(=O)c1cc(F)c(N2CCN(C(=O)c3ccco3)CC2)cc1C,0%
O=C(CSc1nnc(-c2ccncc2)n1C1CCCCC1)Nc1ccccc1,17%
CCN(CC)CCCN1C(=O)C(=O)/C(=C(/O)c2ccc3c(c2)OCCO3)C1c1ccc(C)o1 (stereo not drawn),0%
CC1=NCCN1S(=O)(=O)c1cc(Cl)ccc1Cl,8%
CC(=O)N1CCN(c2ccc(Oc3ncnc4sccc34)cc2)CC1,0%
CCOC(=O)CC(=O)CSc1ncnc2c1cnn2-c1ccccc1,-29%
CC(=O)OCC1OC(C#Cc2ccccc2)C=CC1O (stereo not drawn),3%[11.4 µM]

# Assay outcomes: PubChem, National Center for Advancing Translational Sciences (NCATS)

# Not all compounds are listed; count on the stated rates, not on these rows.
